# VDR inhibitor – inhibitors of human vitamin D receptor; actives 0.93% (n = 400,000); P11473; VDR-SRC2-3 peptide fluorescence polarization, 2 h; Potency, µM, for inactives: max response, negative = inhibition, usual class: inhibitors; active = well fitted inhibition curve with a large enough effect; inconclusive = small, poorly fitted or top-dose-only effect, or another doubt; inactive = no such curve, though single readings can be large or run the other way; note: series mostly up to about 120 µM
# Target sequence (P11473 whole entry, looked up): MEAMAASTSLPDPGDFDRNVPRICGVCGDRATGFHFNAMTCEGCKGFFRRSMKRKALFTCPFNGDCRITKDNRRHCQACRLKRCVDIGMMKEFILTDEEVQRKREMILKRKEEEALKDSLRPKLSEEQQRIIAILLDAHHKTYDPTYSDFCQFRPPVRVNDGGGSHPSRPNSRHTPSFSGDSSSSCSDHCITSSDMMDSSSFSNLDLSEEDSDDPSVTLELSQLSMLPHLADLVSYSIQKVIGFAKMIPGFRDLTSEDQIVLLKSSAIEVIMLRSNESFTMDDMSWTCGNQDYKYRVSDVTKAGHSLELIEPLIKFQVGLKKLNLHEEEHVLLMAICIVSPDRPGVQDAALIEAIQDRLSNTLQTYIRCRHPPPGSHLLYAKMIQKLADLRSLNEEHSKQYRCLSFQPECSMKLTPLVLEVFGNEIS
#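 Compounds are added to VDR with labelled SRC2-3 coactivator peptide and held 2 h at room temperature. Inhibition of the VDR–peptide interaction is then read as a change in fluorescence polarization.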
# Active calls of the source: *; u = inconclusive; & = joins results of further samples. % is set by controls: 0 for no effect and ±100 for the full control effect; potency is the fitted concentration of half-maximal effect. An excerpt, so the mix of outcomes need not match the whole.
SMILES,VDR inhibitor
Cc1ccc(/C=N/NC(=O)c2nnn(-c3nonc3N)c2CSc2ccccc2)o1,3%
CCN(CC)C(=O)Cn1cc(C(=O)C(=O)NCCc2ccccc2)c2ccccc21,u
COc1ccc(NC(=O)N2CCCC2C(=O)Nc2ccc(C)cc2)cc1 (stereo not given),17%
O=C(NCCN1C(=O)S/C(=C\c2cccnc2)C1=O)c1ccc([N+](=O)[O-])s1,-2%
CN(C)S(=O)(=O)c1cc(NC(=O)CN2CCN(c3ccccc3O)CC2)ccc1Cl,-17%
O=C(CSc1nnc(-c2ccc(O)cc2)n1Cc1ccco1)c1ccccc1,6%
CC(=O)Nc1ccc(Sc2ccccc2C(=O)O)c(C(=O)O)c1,0%
Cc1sc2nc(SCC(=O)NCc3ccco3)n(C)c(=O)c2c1C,-9%
O=C(Nc1ccccc1C(F)(F)F)N1CCN(C(c2ccccc2)c2ccccc2)CC1,10%
O=C(CCCC(=O)NCc1ccccc1)NCc1ccccc1,-7%
COc1cc(CNc2ccc3[nH]c(=O)[nH]c3c2)cc(Cl)c1OCc1ccc(F)cc1,-2%
Cn1nc(SCc2ccccc2)c(=O)n(C(c2ccccc2)c2ccccc2)c1=O,-1%
CCN(Cc1ccccc1)C(=O)CCS(=O)(=O)c1cc2c(cc1Cl)NC(=O)CO2,-12%&12%
COC(=O)C(C(=O)OC)C(C)C(C(=O)OC)C(=O)OC,-7%
COc1ccc(-c2ccncc2)cc1OC,4%
CCOC(=O)N1CCN(C(=O)C(=O)Nc2ccc3nc4n(c(=O)c3c2)CCCCC4)CC1,9%
CC(C)CC(NC(N)=O)C(=O)OCC(=O)NC(=O)NC1CCCC1 (stereo not given),-17%
CC(=O)c1ccc(S(=O)(=O)NC2CCCCCCC2)cc1,-8%
O=C(NC(=S)N1CCCCC1c1cccnc1)c1ccc(Br)cc1 (stereo not given),15%
Nc1nc(NCc2ccc(Cl)cc2)c2[nH]cnc2n1,-4%
O=C(Cn1c(-c2cncs2)nc2ccccc21)NCc1ccccc1,-2%
O=C(CSc1ncn[nH]1)Nc1ccc2c(c1)OCCO2,-1%
O=C(Nc1ncc2c(n1)CC(c1ccco1)CC2=O)c1ccc(Cl)cc1 (stereo not given),-15%
CCOC(=O)C1CCN(C(=O)c2ccccc2NC(=O)c2nsc3ccccc23)CC1,1%
O=C(NCCCCc1ccccc1)c1nn(-c2ccccc2)nc1CO,6%
CCOc1cc(C(=O)NCc2ccc(-c3nc4ccccc4o3)cc2)cc(OCC)c1OCC,3%
CCn1c(SCC(=O)Nc2sc(C)c(C)c2C#N)nnc1C1CC1,2%
COc1ccc(CNS(=O)(=O)c2ccc(-c3cc(C)no3)cc2)cc1,-10%
Cc1cc(=O)n(CC(=O)NC(C)c2ccccc2)c2c1c(C)nn2C (stereo not given),-2%
O=C(CNC(=O)c1cccs1)NCC(=O)OCC(=O)c1ccccc1,9%
CCc1nnc(NC(=O)c2ccc(-c3ccccc3Cl)o2)s1,27%
CC(C)NC(=O)Nc1ccc2c(c1)C(=O)N([C@H](C)CO)C[C@H](C)[C@@H](CN(C)C(=O)Nc1ccc3c(c1)OCO3)O2,-8%
CCOC(=O)N1CCN(S(=O)(=O)c2cc(Cl)ccc2Cl)CC1,-12%
COc1ccc(Br)cc1/C=N/Nc1ccc(S(=O)(=O)Nc2ccccc2C(=O)O)cc1[N+](=O)[O-],79µM*
Cn1c(-c2ccc3ccccc3n2)nc2cnccc21,3%
O=C(Cn1ncc2c([nH]c3ccccc32)c1=O)N1CCN(c2ccccc2F)CC1,-8%
COc1cccc(NC(=O)Nc2cc(C)ccc2OC)c1,17%
O=C(c1ccco1)N1CCCSC1=Nc1ccccc1,-26%
COc1ccc([N+](=O)[O-])cc1NC(C)C,-1%
CN1CCc2c(sc3c2c(=O)n(-c2ccccc2)c2nnc(SCc4ccc(F)cc4)n32)C1,4%
O=C(OCc1nnc(-c2ccc(Cl)cc2)o1)c1ccc(=O)n(Cc2ccccc2)n1,13%
Cc1ccc(C)c(Cn2nnc3c(=O)[nH]c(C4CCCN(C(=O)CC(C)C)C4)nc32)c1 (stereo not given),22%
S=c1nc2c(n[nH]1)c1ccccc1n2CCc1ccccc1,79µM*
Nc1ccc2c3c(cccc13)C(=O)NC2=O,-1%
Cc1c(O)ccc(/C(Cc2ccc3ccccc3n2)=N\N)c1O,-17%
CCSc1nc2[nH]ncc2c(=O)[nH]1,4%
CCOC(=O)c1cccc(NC(=O)CSc2nnc(C)n2CC2CCCO2)c1 (stereo not given),-1%
O=C(NCCCn1ccnc1)C(=O)NCC1OCCCN1S(=O)(=O)c1ccccc1 (stereo not given),u
CN(C)c1ccc(-n2cccc2/C=N/n2cnnc2)cc1,-22%
Cn1c(=O)c2[nH]c(CN(Cc3ccccc3)Cc3ccccc3)nc2n(C)c1=O,19%
O=c1cc(-c2ccccc2)nc(N2CCN(Cc3ccccc3)CC2)[nH]1,-4%
Cc1ccc(NC(=O)Cn2nc(C(=O)O)c3ccccc3c2=O)cc1S(=O)(=O)N1CCCCC1,11%
Cc1ccc(CNC(=O)CN(C)S(=O)(=O)c2ccc3c(c2)c(=O)n(C)c(=O)n3C)cc1,-13%
CCCc1nc(SCC(=O)Nc2nc3c(s2)CCCC3)c2ccccc2n1,-8%
O=C(Cn1c(=O)c2cccn2c2ccccc21)NCc1cccc(F)c1,17%
CSc1ccc(CCNC(=O)CCc2c(C)nc3c(c(C)nn3-c3ccc(C)c(C)c3)c2C)cc1,-8%
CNS(=O)(=O)c1cn(CC(=O)N2CCN(c3ccc(C(C)=O)cc3)CC2)cc1S(=O)(=O)NC,-2%
Fc1cccc(NCc2ccccc2-c2nnc(-c3ccccc3Cl)o2)c1,-6%
CSCCC(NC(=O)COc1ccccc1)C(=O)N1CCN(c2ccccc2)CC1 (stereo not given),-19%
C#CCOCCOCCOCCNc1nc(N2CCN(C(=O)C([C@@H](C)CC)n3cc(C(N)CC(C)C)nn3)CC2)nc(N2CCN(C(=O)[C@H](CCC(=O)O)n3cc(C(N)Cc4ccc(O)cc4)nn3)CC2)n1 (stereo not given in full),6%
# Carrying on:
SMILES,VDR inhibitor
Clc1ccccc1-c1nc(-c2ccc(Br)o2)no1,9%
O=C(NCC1CCCO1)c1cccc(Oc2ccc([N+](=O)[O-])cc2)c1 (stereo not given),-13%
CCOC(=O)c1c(N/N=C/c2cccnc2)n[nH]c1C,-26%
CCCCc1ccc(NC(=O)NCc2cccnc2)cc1,21%
Cc1ccc(S(=O)(=O)Nc2ccccc2C(O)c2ccccc2)cc1 (stereo not given),-18%
CNc1oc(/C=C/c2ccccc2)nc1C#N,6%
CCOC(=O)CN1C(=O)S/C(=C/c2ccc3c(c2)n(C)c(=O)n3C)C1=O,5%
COc1ccc2cc(C(=O)C3CCCN(C(=O)c4snnc4C)C3)ccc2c1 (stereo not given),-9%
CCOc1c2ccc(C(=O)NCc3ccc(OC)cc3)cc2nn1CCOC,u
OC[C@@H]1[C@@H](c2ccc(Cl)cc2)C(c2ccccc2)=NN1c1ccccc1,u
CC(Sc1nccn1C)C(=O)Nc1ccccc1 (stereo not given),6%
O=C1CCCc2cc(S(=O)(=O)NCC3CCC(C(=O)NCc4ccccc4Cl)CC3)ccc2N1 (stereo not given),16%
CCOC(=O)c1c(C)[nH]c(C)c1C(=O)COC(=O)c1ccc(Cl)nc1,-2%
CCC1CCCCN1c1cc(C)nc2cc(-c3cccc(C)c3)nn12 (stereo not given),17%
OCC1OC(Oc2cccc3cccnc23)C(O)C(O)C1O (stereo not given),9%
Cc1cccc(C)c1-n1ncc(C(=O)NCCN2CCN(C)CC2)c1C1CCN(C(=O)OC(C)(C)C)CC1,1%
C=C(C)C(=O)OCCCCCCOc1ccc(C(=O)O)cc1,1%
O=C(CCS(=O)(=O)c1ccc(Br)cc1)N1CCN(c2ccccc2Cl)CC1,4%
COC(=O)C1=C(C(=O)OC)[C@]2([C@@H]3CC=CCN[C@@H](Cc4ccccc4)C(=O)N3Cc3ccccc3)C=C[C@H]1O2,-8%
Cc1nn2c(nc(N3CCCCC3)c3ccccc32)c1C=O,-20%
Cc1ccnc2nc(C(=O)OCCOc3ccc(F)cc3)nn12,-14%
C#CCOCCOCCOCCNc1nc(N2CCN(C(=O)[C@H](Cc3cc4ccccc4[nH]3)n3cc([C@@H](N)CC(C)C)nn3)CC2)nc(N2CCN(C(=O)[C@H](Cc3cc4ccccc4[nH]3)n3cc([C@@H](N)CC(C)C)nn3)CC2)n1,19%
CCCn1c(=O)c(-c2nc3ccccc3[nH]2)c(O)c2ccccc21,-21%
O=C(CCN1C(=O)c2ccncc2C1=O)Nc1ccc2c(c1)OCCO2,-9%
c1ccc(C2=NCCCN2)cc1,8%
O=C(NCc1ccco1)c1ccc(S(=O)(=O)c2cccc(S(=O)(=O)N3CCOCC3)c2)cc1,-5%
COc1ccc(-c2cnn3c4c(c(C)nc23)CCN4C2CCCC2)cc1OC,-18%
COc1ccc(CCNC(=O)c2c(C)oc3ncn(C)c(=O)c23)c(OC)c1,16%
CCN(C(=O)CCS(=O)(=O)c1cc2c(cc1Cl)NC(=O)CO2)c1ccccc1,-3%
CC(C)[C@H](NC(=O)Nc1ccc2c(c1)OCCO2)C(=O)O,-16%
CN(C[C@H](Cc1ccccc1)N(C[C@@H](Cc1cccc2ccccc12)N(CCc1ccccc1)N=O)N=O)N=O,0%
O=S(=O)(/N=C(\[O-])C[n+]1ccccc1)c1ccc(Cl)cc1,-2%
NC(=O)c1ccc(F)cc1,9%
COc1ccc(NC(=O)NC23CC4CC(CC(C4)C2)C3)cc1OC,13%
CCc1ccc(NC(=O)C(C)OC(=O)Cc2cc(OC)c(OC)c(OC)c2)cc1 (stereo not given),4%
O=c1cc(O)c2sc3nc4c(c(C(F)(F)F)c3c2[nH]1)CCCCC4,13%
COc1ccc(NC(=O)C2CCN(C(=O)NCc3ccccc3)CC2)cc1,3%
Cc1cc(C(=O)CN(Cc2ccc(F)cc2)S(=O)(=O)c2ccc3c(c2)OCCO3)c(C)n1C,-13%
O=C(C[N+]1(CC#Cc2ccccc2)CCCCC1)c1ccccc1,-3%
Cc1ccc(OCC(=O)Nc2ccc3c(c2)nc(CCN2CCN(C)CC2)n3C)cc1,-2%
COc1cc(CN(C(=O)COc2ccc(F)cc2)c2ccccn2)cc(OC)c1OC,24%
N#Cc1c(C(F)(F)F)cc(-c2cccs2)nc1SCC(=O)Nc1cccc(Br)c1,-14%
CC1Cc2ccccc2N1CC(=O)Nc1ccc(Cl)c(S(=O)(=O)N(C)C)c1 (stereo not given),-6%
COc1cc(C(C(=O)NC2CCCC2)N(C(=O)c2ccco2)c2ccccc2C(C)=O)cc(OC)c1OC (stereo not given),10%
CCOc1ccc(C(O)c2nccn2Cc2ccccc2)cc1 (stereo not given),15%
CCc1ccccc1NC(=O)C1NC(=O)CC1c1ccccc1 (stereo not given),-11%
Cc1ccc2c(c1)C1CN(C)CCC1N2C(=O)c1ccccc1NS(=O)(=O)c1ccc(F)cc1 (stereo not given),-6%
CCOC(=O)N1CCN(C(=O)c2cc(S(=O)(=O)N3CCCC3)cn2C)CC1,-3%

# Pulled one by one from the list above, 2 records:
SMILES,VDR inhibitor
Cc1ccc(OCC(=O)Nc2ccc3c(c2)nc(CCN2CCN(C)CC2)n3C)cc1,-2%
CCOc1ccc(C(O)c2nccn2Cc2ccccc2)cc1 (stereo not given),15%

# The list goes on:
SMILES,VDR inhibitor
CC1(C)OC[C@@H]2O[C@@]3(C(=O)O)OC(C)(C)O[C@@H]3[C@@H]2O1,-11%
CC(C)(C)C(=O)NC1CCN(S(=O)(=O)c2ccccc2F)CC1,5%
CC(C)CN(CC(C)C)C(=O)C12CCC(C)(C(=O)C1)C2(C)C (stereo not given),-1%
Cc1cccc(C(=O)NNc2ncnc3c2cnn3-c2ccc(C)c(Cl)c2)c1,4%
O=C1NC(=O)C2C3C=CC(C3)C12 (stereo not given),4%
COC(=O)C1=CN(Cc2ccc(OC)cc2)C=C(C(=O)OC)C1c1ccc(O)c(OC)c1,-7%
Cc1cc(Br)c(NC(=O)CSc2n[nH]c(N)n2)c(Br)c1,9%
COc1ccc(C(=O)CCc2ccccc2O)c(OC)c1,3%
CC(C)OC(=O)CSc1nnc(-c2ccco2)n1N,7%

# Entries above containing an aryl thioether with sulfur outside any ring:
SMILES,VDR inhibitor
Cc1ccc(/C=N/NC(=O)c2nnn(-c3nonc3N)c2CSc2ccccc2)o1,3%
O=C(CSc1nnc(-c2ccc(O)cc2)n1Cc1ccco1)c1ccccc1,6%
CC(=O)Nc1ccc(Sc2ccccc2C(=O)O)c(C(=O)O)c1,0%
Cc1sc2nc(SCC(=O)NCc3ccco3)n(C)c(=O)c2c1C,-9%
Cn1nc(SCc2ccccc2)c(=O)n(C(c2ccccc2)c2ccccc2)c1=O,-1%
O=C(CSc1ncn[nH]1)Nc1ccc2c(c1)OCCO2,-1%
CCn1c(SCC(=O)Nc2sc(C)c(C)c2C#N)nnc1C1CC1,2%
CN1CCc2c(sc3c2c(=O)n(-c2ccccc2)c2nnc(SCc4ccc(F)cc4)n32)C1,4%
CCSc1nc2[nH]ncc2c(=O)[nH]1,4%
CCOC(=O)c1cccc(NC(=O)CSc2nnc(C)n2CC2CCCO2)c1 (stereo not given),-1%
CCCc1nc(SCC(=O)Nc2nc3c(s2)CCCC3)c2ccccc2n1,-8%
CSc1ccc(CCNC(=O)CCc2c(C)nc3c(c(C)nn3-c3ccc(C)c(C)c3)c2C)cc1,-8%
CC(Sc1nccn1C)C(=O)Nc1ccccc1 (stereo not given),6%
N#Cc1c(C(F)(F)F)cc(-c2cccs2)nc1SCC(=O)Nc1cccc(Br)c1,-14%
Cc1cc(Br)c(NC(=O)CSc2n[nH]c(N)n2)c(Br)c1,9%
CC(C)OC(=O)CSc1nnc(-c2ccco2)n1N,7%

# Screens from PubChem BioAssay.
